High-throughput results (PubChem BioAssay)
2A Renilla: Primary qHTS Assay for Foot and Mouth Disease Virus Antivirals against NCGC Sytravon and CBC Compound Libraries: Renilla Luciferase Signal; HEK cells with a luciferase reporter of 2A StopGo recoding; Potency, µM (series often up to 57.5 µM), inactives show top-dose signal change, negative = less light; 0.32% of 120,000 active; AID 1745857, 2022; active means well fitted falling curve with a large enough effect; inconclusive means small, poorly fitted or top-dose-only effect; inactive means no such curve, though single readings can be large or run the other way; also: nearly all actives have a fitted effect of over 55% in size; overnight with compound
StopGo FLuc: Primary qHTS Assay for Foot and Mouth Disease Virus Antivirals against NCGC Sytravon and CBC Compound Libraries: Firefly Luciferase Signal; Potency, µM (titrated, usually from 57.5 µM), inactives show at the highest dose signal change, negative = less light; HEK cells with a luciferase reporter of 2A StopGo recoding; AID 1745856, 2022; 0.23% of 120,000 active; active = well fitted falling curve with a large enough effect; inconclusive = small, poorly fitted or top-dose-only effect; inactive = no such curve, though single readings can be large or run the other way; also: nearly all actives have a fitted effect of over 60% in size; overnight with compound
The depositor's hits bear a star; ? = inconclusive; & = joins results of further samples; [ ] = remark or other dose. % is scaled to controls: 0 for no effect and ±100 for the full control effect; potency is read from the fitted curve at half-maximal effect. No enrichment for hits, and some 0.55% of all compounds hit somewhere here.

1. COC(=O)COc1ccc(-c2nnc(Nc3ccc(OC)cc3)c3ccccc23)cc1
2. CCCCCCn1c(N2CCCC2)nc2c1c(=O)[nH]c(=O)n2C
3. C#CCNS(=O)(=O)c1ccc(CCC(=O)O)cc1
4. Cc1ccccc1S(=O)(=O)N(CC(O)CN1CCCCC1)c1ccccc1 (stereo not drawn)
5. COc1ccc(C(=O)c2sc(Nc3c(C)cccc3C)nc2N)cc1OC
6. CC1=C(C(=O)Nc2cccc(C(F)(F)F)c2)C(c2ccc(OC(F)F)cc2)NC(=O)N1 (stereo not drawn)
7. Cc1ccc(C2=NN(CC(=O)NCCN(CC(C)C)CC(C)C)C(=O)CC2)cc1
8. COc1nc2ccccc2nc1N1CCC(C(=O)NCc2cccc(C)c2)CC1

Screen / compound no. | 1 | 2 | 3 | 4 | 5 | 6 | 7 | 8
2A Renilla | 4.4% | 7.1% | 6.3% | 3.7% | 32.3%[activator] | -4.7% | -15.2% | 4.8%
StopGo FLuc | 16.8% | 12.1% | -3.6% | -10.9% | 35.9%[activator] | -8.4% | -21.0% | 6.8%

9. Cc1nc2cc(NC(=O)COc3cccc(C)c3C)ccc2o1
10. CCOC(=O)c1cc(-c2ccccc2)n(CCCC(=O)Nc2cccc(Cl)c2C)c1C
11. C=CCN(CC(=O)OC)Cc1cccs1
12. CCS(=O)(=O)Nc1ccc(N(C)CCCc2c(C)nn(C)c2C)c(C(=O)O)c1
13. CC(O)CNS(=O)(=O)c1ccc(Cl)c(Cl)c1 (stereo not drawn)
14. CCOC(=O)c1ccc(-n2c(CCC(=O)O)ccc2-c2ccccc2)cc1O
15. CC1(C(=O)NC2CCCCC2)Cc2ccccc2C(=O)N1Cc1ccc(Cl)cc1 (stereo not drawn)
16. CCCCOc1ccc(C2C(=O)N(C3CCCCC3)CC(=O)N2CCCC)cc1 (stereo not drawn)

Screen / compound no. | 9 | 10 | 11 | 12 | 13 | 14 | 15 | 16
2A Renilla | 26.3% | -15.7% | -5.2% | 5.8% | 64.4%[activator] | -7.9% | 11.7% | -4.6%
StopGo FLuc | 190.0%[activator] | -17.0% | -13.0% | 8.8% | -5.9% | 8.8% | 0.0% | -5.3%

17. Cc1ccc(-c2cc(C(=O)Nc3nccs3)c3ccccc3n2)cc1
18. Cc1ccc(NC(=O)CSc2nc3n[nH]c(C)c3c(=N)n2-c2ccccc2C)cc1C
19. CCN1CCN(c2ncc3c(n2)CCN(Cc2sccc2C)C3)CC1
20. O=C(COC(=O)c1nc(-c2ccccc2)n(-c2ccccc2)n1)Nc1ccc(Cl)cc1
21. O=C(CN(c1ccc(Cl)c(C(F)(F)F)c1)S(=O)(=O)c1ccccc1)Nc1cccnc1
22. CNc1c(NC(=O)Cc2ccc(OC)c(OC)c2)c(=O)oc2ccccc12
23. Cc1ccccc1NC(=O)Cn1c(=O)n(CCC(=O)N2CCc3ccccc3C2)c(=O)c2ccccc21
24. O=C(COc1ccc2c(=O)c(-c3ccccc3)coc2c1)OC1CCCCC1

Screen / compound no. | 17 | 18 | 19 | 20 | 21 | 22 | 23 | 24
2A Renilla | 26.5% | 4.0% | -9.8% | -8.1% | 35.7%[activator] | -1.8% | -8.6% | -6.1%
StopGo FLuc | 80.6%[activator] | -14.6% | 9.6% | -5.9% | -3.6% | 2.5% | -12.5% | 19.3%

25. O=C(Cc1c[nH]c2ccccc12)N1CCN(C(=O)c2ccccc2)CC1
26. Cc1ccc2c(C)c(CCC(=O)Nc3ccc(F)c(Cl)c3)c(=O)oc2c1
27. CCOC(=O)c1ccc(Oc2coc3cc(OC(=O)N4CCOCC4)ccc3c2=O)cc1
28. CCCCOCc1cc(CN2CCN(c3cccc(Cl)c3)CC2)c(O)c2ncccc12
29. COC(=O)c1ccccc1NC(=O)c1cccc(N2CCCN(Cc3ccc(Cl)cc3)C2=O)c1
30. COc1ccc(CNC(=O)CCCN2C(=O)CSc3c2c(C)nn3-c2ccccc2)cc1
31. O=C(Nc1cc2c(cc1C(O)c1ccccc1)OCCO2)c1cccc(Br)c1 (stereo not drawn)
32. COC(=O)C1(NC(=O)COc2ccc(Cl)cc2Cl)CCCCC1

Screen / compound no. | 25 | 26 | 27 | 28 | 29 | 30 | 31 | 32
2A Renilla | -4.7% | 8.8% | -3.8% | ? | 0.1% | 4.6% | 0.0% | 8.91µM*
StopGo FLuc | 6.7% | 1.9% | 16.3% | 19.9% | 3.2% | -11.0% | -9.2% | 8.91µM*

33. O=c1[nH]c(CSc2nnnn2-c2ccccc2)nc2ccsc12
34. CCOc1ccccc1Oc1coc2cc(OC(=O)c3ccc(C)cc3)ccc2c1=O
35. COc1cc(NC(=O)Cn2nnc(-c3ccc(C(F)(F)F)cc3)n2)c(C(=O)O)cc1OC
36. CC(NS(=O)(=O)c1ccc(F)cc1)C(=O)Nc1ccccc1 (stereo not drawn)
37. COC(=O)c1cn(C(=O)c2ccccc2)c2ccccc12
38. COc1ccc(-c2cc(C(=O)Nc3cc(C(F)(F)F)ccc3Cl)no2)cc1
39. Cc1ccc(-n2c(SCC(=O)NC(=O)NCC(C)C)nnc2N2CCCCC2)cc1
40. CC1CCN(C(=O)COc2ccccc2-c2noc(-c3ccccc3F)n2)CC1

Screen / compound no. | 33 | 34 | 35 | 36 | 37 | 38 | 39 | 40
2A Renilla | -3.9% | 3.4% | -8.1% | 12.8% | 6.9% | -5.5% | 9.6% | 137.9%[activator]
StopGo FLuc | 12.1% | 8.2% | 71.5%[activator] | 0.0% | 30.4%[activator] | -17.3% | -7.5% | 26.9%

Some of these compounds in order of molecular weight, high to low.
39. Cc1ccc(-n2c(SCC(=O)NC(=O)NCC(C)C)nnc2N2CCCCC2)cc1
34. CCOc1ccccc1Oc1coc2cc(OC(=O)c3ccc(C)cc3)ccc2c1=O
38. COc1ccc(-c2cc(C(=O)Nc3cc(C(F)(F)F)ccc3Cl)no2)cc1
36. CC(NS(=O)(=O)c1ccc(F)cc1)C(=O)Nc1ccccc1 (stereo not drawn)
37. COC(=O)c1cn(C(=O)c2ccccc2)c2ccccc12

Screen / compound no. | 39 | 34 | 38 | 36 | 37
2A Renilla | 9.6% | 3.4% | -5.5% | 12.8% | 6.9%
StopGo FLuc | -7.5% | 8.2% | -17.3% | 0.0% | 30.4%[activator]

Following part
41. O=C(NCc1n[nH]c(=O)c2ccccc12)c1ccc(Cl)cc1
42. O=C(CN1CCN(C(=O)c2cc(-c3ccc(Cl)cc3)nc3ccccc23)CC1)N1CCOCC1
43. COC(=O)Cn1c(SCCOc2ccccc2Cl)nc2ccccc21
44. COc1ccc(Cl)cc1NC(=O)Cc1ccc(NC(=O)N2CCCCc3ccccc32)cc1
45. COc1ccc(NC(=O)Cn2c(=O)n(CCCC(=O)NCc3ccccc3Cl)c(=O)c3ccccc32)c(OC)c1
46. O=C(CCc1ncc(-c2ccc(Cl)cc2Cl)o1)NCC1CCCO1 (stereo not drawn)
47. COc1cc(C#N)cc(Cl)c1O
48. CCN(Cc1ccccc1)C(=O)c1c(C)oc2ncn(C)c(=O)c12

Screen / compound no. | 41 | 42 | 43 | 44 | 45 | 46 | 47 | 48
2A Renilla | 17.6% | 41.5%[activator] | -5.0% | -13.3% | -7.5% | 4.3% | -1.8% | -4.3%
StopGo FLuc | 0.0% | 115.6%[activator] | 2.9% | -12.5% | -4.8% | 25.5% | 14.4% | -9.2%

49. O=C(NCCc1ccco1)c1ccc(CN2C(=O)CSc3ncccc32)cc1
50. COc1cc(OC)c(NC(=O)c2nn(-c3ccc(C)cc3)c(=O)c3c2c2ccccc2n3C)cc1Cl
51. O=C(O)c1cccc(I)c1
52. C/C=C/C=C/C(=O)OCc1nc2c(c(=O)[nH]c(=O)n2CCCC)n1CC
53. CCN(CC)S(=O)(=O)c1ccc(C)c(NCc2ccccc2C#N)c1
54. CC1(C)CC(=O)C2=C(C1)Nc1nc(N)[nH]c(=O)c1C2c1ccc2c(c1)OCO2 (stereo not drawn)
55. COc1ccc(Cl)cc1NC(=O)NCCn1c(=O)oc2ccc(C)cc21
56. CCOCCCNc1oc(-c2ccc(S(=O)(=O)N(C)C)cc2)nc1C#N

Screen / compound no. | 49 | 50 | 51 | 52 | 53 | 54 | 55 | 56
2A Renilla | 20.3% | -11.0% | 11.2% | -12.7% | 220.0%[activator] | 0.9% | 71.1%[activator] | 11.5%
StopGo FLuc | 53.8%[activator] | -9.3% | -3.2% | -9.4% | 1.3% | 1.4% | 2.6% | -4.1%

Reprinted from the part before: 2 entries; new compounds follow.
55. COc1ccc(Cl)cc1NC(=O)NCCn1c(=O)oc2ccc(C)cc21
56. CCOCCCNc1oc(-c2ccc(S(=O)(=O)N(C)C)cc2)nc1C#N
57. CC(C)(C)OC(=O)N1CCC(c2c(C(=O)N3CCOCC3)cnn2-c2cccc(F)c2)CC1
58. CC1=C(C(=O)OC2CCCCCC2)C(c2c(F)cccc2Cl)CC(=O)N1 (stereo not drawn)
59. O=C(NCc1ccccc1)c1nc(-c2ccc(Cl)cc2)n2c1CCCCC2
60. CCOC(=O)c1cc(-c2ccccn2)nc2c1c(C)nn2-c1ccc(C)cc1
61. Cc1ccc(O)c(NC(=O)c2noc3c2CCCC3)c1
62. Cc1ccccc1NC(=O)c1nc(S(C)(=O)=O)ncc1N(Cc1ccco1)Cc1sccc1C
63. COc1ccc(-c2ocnc2C(=O)Nc2cc(OC)cc(OC)c2)cc1
64. CC(C#N)(NC(=O)COc1ccccc1C(F)(F)F)C1CC1 (stereo not drawn)

Screen / compound no. | 55 | 56 | 57 | 58 | 59 | 60 | 61 | 62 | 63 | 64
2A Renilla | 71.1%[activator] | 11.5% | 9.1% | 16.1% | -3.8% | -2.6% | -9.0% | 0.9% | -6.7% | -1.6%
StopGo FLuc | 2.6% | -4.1% | -4.2% | 5.7% | -6.6% | 5.4% | 211.9%[activator] | -6.9% | 3.7% | -12.6%

65. CCCCSc1nnc2c(n1)OC(c1ccc(Br)s1)Nc1ccccc1-2 (stereo not drawn)
66. O=C(Cn1nc(C(=O)O)c2ccccc2c1=O)Nc1c(F)cccc1F
67. CCc1ccc(C(=O)c2cn(CC(=O)Nc3cc(OC)cc(OC)c3)c3ccc(CC)cc3c2=O)cc1
68. COc1cc(OC)c(C2=CCN(S(=O)(=O)N3CCOCC3)CC2)c(OC)c1
69. COc1ccc(C(=O)N2CCN(C(=O)COc3ccc(Br)cc3)CC2)cc1OC
70. Cc1ccc2c(c1)-c1c(cnc3cc(-c4ccc(Cl)cc4)nn13)CO2
71. Cc1ccccc1-n1c(C)c(C)n2c3c(=O)[nH]c(=O)n(C)c3nc12
72. Cc1ccc(N2C(=O)CS(=O)(=O)C23C(=O)N(C)c2ccccc23)cc1F (stereo not drawn)

Screen / compound no. | 65 | 66 | 67 | 68 | 69 | 70 | 71 | 72
2A Renilla | -6.6% | 1.6% | -21.3% | -2.2% | -7.1% | -11.2% | 49.5%[activator] | -0.7%
StopGo FLuc | 134.8%[activator] | 7.0% | -27.9% | -10.1% | 14.1% | -6.5% | 82.6%[activator] | 0.5%

73. CCOc1ccc(OC(C)C(=O)NN)cc1 (stereo not drawn)
74. N#Cc1nc(-c2cccc3ccccc23)oc1NCCN1CCOCC1
75. COc1ccc2[nH]cc(C3C(NC(=O)c4ccccc4)=C(C)Nc4ncnn43)c2c1 (stereo not drawn)
76. CCCCNS(=O)(=O)c1ccc2nc(-c3cccnc3)cc(C(=O)NCCCOC(C)C)c2c1
77. Cc1ccc(CNC(=O)CN2C(=O)C3(SCC(=O)N3c3cc(C)cc(C)c3)c3ccccc32)cc1 (stereo not drawn)
78. Cc1ccc(-c2nc(Cn3c(=O)c(C#N)cn(C4CC4)c3=O)co2)c(C)c1
79. COc1cc(/C=C(/C#N)c2ccccn2)ccc1OCc1cccc(C(F)(F)F)c1
80. CCOC(=O)c1nc(NCc2cc(OC)ccc2OC)c2ccccc2n1

Screen / compound no. | 73 | 74 | 75 | 76 | 77 | 78 | 79 | 80
2A Renilla | -2.9% | 44.4%[activator] | -5.1% | 1.2% | 4.7% | -15.1% | -2.9% | 1.4%
StopGo FLuc | 20.8% | 157.6%[activator] | -8.5% | -12.7% | 27.7% | -8.8% | 63.4%[activator] | 0.0%

81. O=C(NCCCOC1CCCCC1)c1cc(=O)[nH]c2ccccc12
82. Cc1ccc(CNC(=O)c2c(C)oc3nc(C)nc(N4CCOCC4)c23)cc1
83. O=C(NCc1ccccc1)N1CCN(C(=O)c2ccc3ccccc3c2)CC1
84. COc1ccc(NC(=O)CSc2nc3ccccc3nc2N2CCC(C)CC2)cc1
85. Cc1ccccc1C(=O)Nc1nc(-c2nnn(-c3ccc(C(C)C)cc3)c2C)ns1
86. CC(C)C(=O)NCCNC(=O)c1cn(C)c2ccccc12
87. COc1ccc(NC(=O)COc2ccc(S(=O)(=O)NC3CCCCC3)cc2)cc1OC
88. O=C(CSC1=NC2(CCCCC2)N=C1c1cccs1)NCc1ccccc1

Screen / compound no. | 81 | 82 | 83 | 84 | 85 | 86 | 87 | 88
2A Renilla | 387.4%[activator] | -7.1% | 1.3% | 61.5%&30.8%[activator] | 12.9% | 11.8% | 222.6%[activator] | 81.6%[activator]
StopGo FLuc | 0.0% | -18.7% | 18.5% | 55.6%&5.4%[activator] | 12.6% | 19.1% | -27.3% | -10.3%
